# PINK1 expr mod – PINK1 expression modulation | PINK1 immunofluorescence, high-content cytometry, 24 h | 410,000 tested, 0.2% active | Potency, µM (series often up to 76.6 µM), for the others: top-dose activation (PINK1 increase), most hits filed as activators; active = well fitted activation curve with a large enough effect; inconclusive = small, poorly fitted or top-dose-only effect; inactive = flat fitted curve, though single readings scatter; cell line not stated here;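 also: potency is read from the fitted curve at half-maximal effect; % of control where 0% means no effect; nearly all actives have a fitted effect of over 65% in size; a mitochondrial uncoupler was the plate control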
#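 Fluorescence from anti-PINK1 antibody, together with nuclear and cell stains, was scanned on a laser-scanning cytometer. Before staining, stable-line cells were incubated 24 hours with compounds at 5 concentrations; primary antibody 12 h at 10 degrees C.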
# TRPML1 agonist – human mucolipin-1 channel agonism. Q9GZU1. TRPML1-expressing cells, Ca2+ dye fluorescence, FDSS; host cell line not named in the record; reference of the full effect not given here. activation, % (concentration not given with the values). 410,000 tested, 0.12% active. AID 624414; in the data active = activation above about 50%; inconclusive = about 30% to 50%; inactive = below about 30%; also: 0% is about no effect; the text of the record puts the active cut at 80%
# Target sequence (Q9GZU1 whole entry, looked up): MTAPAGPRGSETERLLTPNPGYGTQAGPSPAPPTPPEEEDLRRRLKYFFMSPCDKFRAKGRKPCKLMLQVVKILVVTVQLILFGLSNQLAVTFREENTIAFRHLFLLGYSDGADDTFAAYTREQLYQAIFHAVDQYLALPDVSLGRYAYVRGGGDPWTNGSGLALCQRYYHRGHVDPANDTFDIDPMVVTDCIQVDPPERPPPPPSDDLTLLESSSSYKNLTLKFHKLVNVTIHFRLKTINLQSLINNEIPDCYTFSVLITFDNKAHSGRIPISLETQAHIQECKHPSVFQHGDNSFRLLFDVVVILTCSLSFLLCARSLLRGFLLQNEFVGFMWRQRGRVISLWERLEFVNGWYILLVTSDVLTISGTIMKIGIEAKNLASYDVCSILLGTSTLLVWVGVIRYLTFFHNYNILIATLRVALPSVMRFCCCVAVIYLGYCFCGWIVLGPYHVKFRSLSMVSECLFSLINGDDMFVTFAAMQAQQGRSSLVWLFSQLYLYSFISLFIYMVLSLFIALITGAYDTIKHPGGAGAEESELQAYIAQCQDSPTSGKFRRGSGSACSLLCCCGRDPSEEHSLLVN
#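 Tet-induced TRPML1-DL cells, 1,500 per well, cultured overnight, were loaded with a no-wash Ca2+ dye for 45–90 min. Calcium fluorescence was recorded on the FDSS for 110 s after compound addition, before the EC80 agonist (4 uM 54-4) was added.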
# Six1-Eya2 inh – inhibitors of human Six1/Eya2 interaction; Q15475+O00167; AlphaScreen GST-Six1/His-Eya2 binding, biochemical; stronger effect = lower value; control for the full effect not named in the record; AID 651725; 360,000 tested, 0.56% active; activity change, % (test concentration not listed); in the data active = activity change below about -65%; inconclusive = about -30% to -65%; inactive = above about -30%; also: % is scaled to controls: 0 for no effect and ±100 for the full control effect; compound concentration not given in the record
#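 Compounds are tested against tagged Six1 and Eya2 proteins bridged by glutathione donor and nickel acceptor beads; after a one-hour incubation at 37 °C without light, AlphaScreen emission is recorded.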
# TRPML1 inh – human mucolipin-1 channel inhibition | Q9GZU1 | TRPML1-inducible cells, Ca2+ dye fluorescence, FDSS; stronger effect = lower value; inhibition of EC80 agonist-evoked calcium signal | activity change, negative = inhibition, % (no concentration beside the values) | 390,000 tested, 0.02% active | AID 624415; in the data active means activity change below about -50%; inconclusive means about -30% to -50%; inactive means above about -30%;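 also: stimulus is agonist 54-4 at its EC80 concentration; % is scaled to controls: 0 for no effect and ±100 for the full control effect; compound concentration not given in the record; the text of the record puts the active cut at -80%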
#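 Tet-induced TRPML1-DL cells loaded with Ca8 no-wash calcium dye were read kinetically on FDSS. Compound addition was followed by EC80 agonist 54-4 (4 uM final); inhibition was read over 110 s.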
# D2 ag – agonists of human D2 dopamine receptor (beta-arrestin) | P14416 | DiscoveRx PathHunter D2 beta-arrestin, luminescence, 90 min; 100% = 57 uM dopamine signal | activation, % (concentration not given with the values) | 360,000 tested, 0.084% active | AID 624465; in the data active = activation above about 40%; inconclusive = about 15% to 40%; inactive = below about 15%; also: compound concentration not given in the record; the text of the record calls up to 30% inactive
# Target sequence (P14416 whole entry, looked up): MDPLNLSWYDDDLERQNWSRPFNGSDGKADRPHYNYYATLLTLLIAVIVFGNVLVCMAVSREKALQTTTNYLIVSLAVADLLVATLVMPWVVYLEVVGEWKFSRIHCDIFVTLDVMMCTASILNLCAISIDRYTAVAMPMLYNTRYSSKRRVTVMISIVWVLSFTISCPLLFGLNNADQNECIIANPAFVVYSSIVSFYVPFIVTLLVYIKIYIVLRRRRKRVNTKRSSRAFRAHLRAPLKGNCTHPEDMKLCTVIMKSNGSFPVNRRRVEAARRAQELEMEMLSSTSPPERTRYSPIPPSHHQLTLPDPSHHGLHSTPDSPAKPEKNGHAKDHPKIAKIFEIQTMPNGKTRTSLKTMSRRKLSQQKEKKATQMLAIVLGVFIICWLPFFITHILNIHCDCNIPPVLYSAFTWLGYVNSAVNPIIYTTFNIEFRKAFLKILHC
#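 Agonist mode: compounds alone added to overnight-plated D2 PathHunter cells for 90 min at 37 C, with 57 uM final dopamine (EC100) defining full response. Beta-arrestin recruitment detected by chemiluminescent reagent, read after 1 h at ambient temperature.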
# CtBP-E1A blk – inhibitors of CtBP/E1A interaction | activity change, % (no concentration beside the values) | AlphaScreen GST-E1A/His-CtBP binding, 1536-well; stronger effect = lower value; control for the full effect not named in the record | 340,000 tested, 0.49% active; in the data active means activity change below about -65%; inconclusive means about -30% to -65%; inactive means above about -30%; also: % is scaled to controls: 0 for no effect and ±100 for the full control effect; compound concentration not given in the record
#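 AlphaScreen with 125 nM GST-E1A and 125 nM His-CtBP (5X stocks) in Tris pH 8.0, 300 mM NaCl, BSA, Tween 20, TCEP. Compounds preincubated 2 h at 37 deg C, then glutathione donor/nickel acceptor beads added for 1 h at 37 deg C in dark.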
# * marks the source's active call; other numbers are inactive results; ? = inconclusive; nt = no result given; & = joins results of further samples; [ ] = dose if it differs, or a comment.
SMILES,PINK1 expr mod,TRPML1 agonist,Six1-Eya2 inh,TRPML1 inh,D2 ag,CtBP-E1A blk
O=C(NC(Cc1ccccc1)C(=O)O)/C(=C/c1cccc([N+](=O)[O-])c1)NC(=O)c1cccc(Br)c1 (stereo not drawn),1.9%,-0.5,-7,-9,0.8,1
COc1ccc(-n2c(SC(C)C(=O)N3CCOCC3)nc3ccccc3c2=O)cc1 (stereo not drawn),4.8%,-0.1,1,-5,-0.7,-2
O=C(Cc1ccccc1)NCCN1CCCC1,1.0%,1.4,0,57,0.0,3
Cc1cc(C)nc(NS(=O)(=O)c2ccc(NC(=S)NC(=O)C3CCCC3)cc2)n1,1.9%[38.3 µM],-0.7,-4,23,-3.7,-1
COC(=O)CCS(=O)(=O)c1ccc(NC(C)=O)cc1,nt,0.7,9,26,0.6,10
N#Cc1nc(COc2ccccc2)oc1N1CCOCC1,-1.1%,-0.5,-3,-9,-0.9,7
Cc1c(OCC(=O)C(C)(C)C)ccc2c3c(c(=O)oc12)CCCC3,4.8%,0.6,-8,11,-0.6,6
COC(=O)/C(=C\C(=O)c1ccccc1)Nc1ccc(OC)cc1,1.6%,1.7,-22,-23,-7.0,-22
Cc1cc(C)n2nc(C(=O)N/N=C/C=C/c3ccccc3)nc2n1,0.8%,-0.4,-12,-1,-1.5,nt
COC1OC2COC(c3ccccc3)OC2C(O)C1NC(=O)c1ccccc1 (stereo not drawn),0.5%,0.5,4,-13,-1.9,5
C=C[C@H]1C(O[C@@H]2O[C@H](CO)[C@@H](O)[C@H](O)[C@H]2O)OC=C2C(=O)N3CCc4cc(OC)c(O)cc4[C@H]3C[C@H]21 (stereo partly drawn),1.3%,nt,0,nt,-5.5,-3
CCOC(=O)N1CCN(S(=O)(=O)N2CCCC(C(=O)NCc3ccc(OC)cc3OC)C2)CC1 (stereo not drawn),-1.3%&0.9%,0.5&-0.7,-1,4&10,1.3,nt
CCCCCCSc1ccc(-c2nc3ccc(C)cn3c2NC2CCCCC2)cc1,12%,-1.2,8,-8,2.0,1
CCc1[nH]nc(C(=O)N2CCCC(C(=O)c3cccc(C(F)(F)F)c3)C2)c1C (stereo not drawn),-1.7%,-1.4,1,5,6.2,4
CCOc1ccc(CCNC(=O)CCn2c(=O)c3cccn3c3ccc(F)cc32)cc1OCC,-0.4%,1.9,nt,-10,nt,nt
COc1ccc(CNC(=O)C(OC(=O)c2ccco2)c2ccc(F)cc2)cc1 (stereo not drawn),-0.3%,-0.3,-4,-8,-3.4,0
Cn1ncc(Br)c1NC(=O)c1cc(Cl)cc(Cl)c1,2.0%,1.1,0,-19,-1.8,nt
Cc1nc(=O)c(-c2ccccc2)c(C)n1-c1cccc(C(=O)O)c1,-0.8%,-1.3,7,-11,-1.9,6
CN(Cc1cc2ccccc2[nH]c1=O)S(=O)(=O)c1ccccc1,-0.3%,0.1,-3,15,-0.6,5
Cc1nn(Cc2cccc(C(=O)NC(C)c3ccc(C(C)(C)C)cc3)c2)c(C)c1[N+](=O)[O-] (stereo not drawn),-4.4%[38.3 µM],2.0,-6,1,3.5,-5
Cc1ccc(-n2nc3c(=O)n(CCCC(=O)NCCc4ccccc4C)nc(C)c3c2C)cc1,0.5%,-0.5,2,-1,-1.3,0
CCOc1ccc(NS(=O)(=O)c2c(C(=O)N3CCCCCC3)c(C)n(C)c2C)cc1,-0.6%,0.9,-2,-1,3.5,-2
COc1ccc(-c2cc(C(=O)N3CC(C)CC(C)C3)c3ccccc3n2)cc1 (stereo not drawn),3.3%,2.2,-3,8,-1.4,4
O=c1c(Cc2ccc(F)cc2)c(O)ccn1C1CCCCC1,3.7%,-0.3,2,9,-3.3,4
CC(C)CNC(=O)c1ccc(COc2ccc(Cl)cc2Cl)o1,3.9%,1.3,-4,-1,-1.8,2
Nn1c(SC/C=C/c2ccccc2)nnc1-c1cccnc1,-0.2%,0.3,6,-2,0.1,-1
COc1ccc(C)cc1NC(=O)CSc1ccc(-c2cccnc2)nn1,-0.1%,-0.1,1,-4,3.3,-2
CCOc1ccc(S(=O)(=O)N2CCN(C(=O)Cc3ccc(S(=O)(=O)N4CCOCC4)s3)CC2)cc1,-3.4%,5.6,0,-12,3.8,-24
CCCCOc1ccc(NC(=O)CSc2cccc3cccnc23)cc1,6.9%,-0.3,?,0,2.2,-88*
COc1ccccc1NC(=O)/C(=C/c1cccs1)NC(=O)c1ccco1,-1.2%,1.5,0,30,1.9,1
O=C(COC(=O)COc1ccccc1[N+](=O)[O-])Nc1ccc(S(=O)(=O)N2CCCCC2)cc1,-0.2%,1.0,1,18,-1.2,0
Cc1ccc(OCCCC(=O)NNC(=O)c2ccccn2)cc1,-3.3%,-0.3,?,-10,2.7,?
O=C(N/N=C/c1cccs1)[C@H]1C[C@@H]1c1ccccc1,-0.7%,-0.4,-13,7,-3.9,0
COc1ccc(OCCC(=O)OCC(=O)NCc2ccccc2OC)cc1,-1.6%,1.0,2,-14,-0.6,3
CCOc1cc(/C=N/Nc2ccccc2Cl)ccc1OCC(=O)O,-0.2%,-0.5,-2,7,-0.4,1
O=C(CSc1ncn[nH]1)NCc1ccc2c(c1)OCO2,2.0%,-0.3,-14,5,-0.3,7
O=C(COC(=O)CSc1ccc(F)cc1)NCc1ccco1,-0.6%,0.0,8,8,-4.4,3
COc1ccc(OCC(=O)Nc2ccc3oc(-c4ccncc4)nc3c2)cc1,11%,-0.1,6,-4,-3.3,0
CC12CC(O)C3c4ccc(O)cc4CCC3C1CCC2=O (stereo not drawn),2.0%,3.1,-2,-18,3.0,nt
Cc1ccc(Oc2ccc(NC(=O)CCC(=O)OCC(=O)c3cccs3)cc2)cc1C,2.6%,-0.1,6,15,-2.3,3
CCOc1ccc2[nH]c(=O)c(C(c3nnnn3CCOC)N3CCOCC3)cc2c1 (stereo not drawn),1.2%,-0.9,3,5,-3.3,3
O=C(Nc1cccc(-c2nn[nH]n2)c1)c1cccs1,-0.2%,0.7,?,46,-1.2,?
CCCN(CCC)c1nc(N)nc(-c2cc(Cl)ccc2OC)n1,-0.8%,0.5,5,-7,-0.9,0
CC12CCCC(=O)C1CCC(=Cc1ccco1)C2=O (stereo not drawn),-0.9%,-0.4,3,21,-7.7,-7
CCOc1ccc(S(=O)(=O)NCc2ccc(C)cc2)c2cccnc12,0.9%,1.8,?,37,2.0,-26
O=C(Cc1sc(Nc2ccccc2)nc1-c1ccccc1)NCc1ccccn1,2.5%,-0.3,-7,6,-1.9,5
COc1ccc(CNC(=O)C2CCCN2C(=O)NC2CCCCC2)cc1 (stereo not drawn),-1.7%,-0.5,3,4,-0.5,10
Cc1ccccc1CN1CCN(CC2CC3C=CC2C3)CC1 (stereo not drawn),1.3%,0.4,-2,-23,-3.2,0
CCOc1ccc(CN(C)C(=O)NNC(=O)c2ccc(C)cc2)cc1OC,0.1%,1.5,-4,13,-3.9,2
Cc1ccc(C)c(N2CCN(C(=O)c3ccc(CSc4nc5ccncc5[nH]4)cc3)CC2)c1,0.8%,1.2,-9,18,3.3,-4
COC(=O)C1=C(C)NC(C)=C(C(=O)O[C@@H]2CCCN(Cc3ccccc3)C2)[C@@H]1c1cccc([N+](=O)[O-])c1,?,-1.0,-22,-3,-5.9,-25
CC(C)CC(=O)NC(c1ccccc1Cl)c1c(O)ccc2ccccc12 (stereo not drawn),?,4.1,-6,12,-2.3,-10
CCOC(=O)c1c(CN(CC)CC)n(-c2ccccc2)c2ccc(O)cc12,1.1%,0.9,-3,-2,-0.7,0
Nc1c(-c2ccccc2)cnc2cc(-c3ccccc3)nn12,15%,1.7,-1,20,-4.4,4
CC(C)N(C(=S)NC1CC2CCC1C2)c1ccccc1 (stereo not drawn),0.0%,0.6,1,-4,0.9,6
COc1ccc(N2CCN(C(=O)NCc3cccc(OC)c3)CC2)cc1,-1.2%,1.5,-6,7,4.5,-12
Cc1cccc(NC(=S)NCCC(C)C)c1,-0.5%,0.6,8,-13,-2.6,-4

# 14 entries out of the list, ordered by heavy-atom count, largest number first.
SMILES,PINK1 expr mod,TRPML1 agonist,Six1-Eya2 inh,TRPML1 inh,D2 ag,CtBP-E1A blk
COC(=O)C1=C(C)NC(C)=C(C(=O)O[C@@H]2CCCN(Cc3ccccc3)C2)[C@@H]1c1cccc([N+](=O)[O-])c1,?,-1.0,-22,-3,-5.9,-25
O=C(NC(Cc1ccccc1)C(=O)O)/C(=C/c1cccc([N+](=O)[O-])c1)NC(=O)c1cccc(Br)c1 (stereo not drawn),1.9%,-0.5,-7,-9,0.8,1
CCOc1ccc(CCNC(=O)CCn2c(=O)c3cccn3c3ccc(F)cc32)cc1OCC,-0.4%,1.9,nt,-10,nt,nt
O=C(COC(=O)COc1ccccc1[N+](=O)[O-])Nc1ccc(S(=O)(=O)N2CCCCC2)cc1,-0.2%,1.0,1,18,-1.2,0
CCCCCCSc1ccc(-c2nc3ccc(C)cn3c2NC2CCCCC2)cc1,12%,-1.2,8,-8,2.0,1
O=C(Cc1sc(Nc2ccccc2)nc1-c1ccccc1)NCc1ccccn1,2.5%,-0.3,-7,6,-1.9,5
COc1ccc(CNC(=O)C(OC(=O)c2ccco2)c2ccc(F)cc2)cc1 (stereo not drawn),-0.3%,-0.3,-4,-8,-3.4,0
CCOC(=O)c1c(CN(CC)CC)n(-c2ccccc2)c2ccc(O)cc12,1.1%,0.9,-3,-2,-0.7,0
CC(C)CC(=O)NC(c1ccccc1Cl)c1c(O)ccc2ccccc12 (stereo not drawn),?,4.1,-6,12,-2.3,-10
CCCN(CCC)c1nc(N)nc(-c2cc(Cl)ccc2OC)n1,-0.8%,0.5,5,-7,-0.9,0
O=C(COC(=O)CSc1ccc(F)cc1)NCc1ccco1,-0.6%,0.0,8,8,-4.4,3
CC12CC(O)C3c4ccc(O)cc4CCC3C1CCC2=O (stereo not drawn),2.0%,3.1,-2,-18,3.0,nt
CC12CCCC(=O)C1CCC(=Cc1ccco1)C2=O (stereo not drawn),-0.9%,-0.4,3,21,-7.7,-7
Cc1cccc(NC(=S)NCCC(C)C)c1,-0.5%,0.6,8,-13,-2.6,-4
